gsp antag – qHTS for Antagonists of gsp, the Etiologic Mutation Responsible for Fibrous Dysplasia/McCune-Albright Syndrome: qHTS; gsp-mutant cells, cAMP HTRF, 30 min; control for the full effect not named in the record; Potency, µM (titrated, usually from 76.9 µM), for inactives: at the highest dose activity change, negative = inhibition, most hits filed as inhibitors; 340,000 tested, 0.4% active; AID 624288, 2012; active = falling curve of any shape with a large fitted effect; inconclusive = falling curve, mostly with a smaller effect; inactive = flat or rising curve; cell line not stated here;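 further: intracellular cAMP measured with PDE inhibitor Ro 20-1724 present during compound exposure; potency means the concentration at half of the fitted maximal effect; on the % scale 0 is the no-effect control and ±100 the full control effect; nearly all actives have a fitted effect of over 65% in size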
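HTRF cAMP measurement after 30 min RT detection following 30 min, 37C compound treatment alongside […] (added as 300 uM solution) in G418-selected cells seeded at 2000/well and grown 16–24 h.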
gsp agonist – qHTS for Agonist of gsp, the Etiologic Mutation Responsible for Fibrous Dysplasia/McCune-Albright Syndrome: qHTS; 340,000 tested, 0.13% active; AID 624287, 2012; gsp mutant cells, cAMP HTRF, 30 min; control for the full effect not named in the record; Potency, µM (series often up to 76.9 µM), for the others: at the highest dose activation (cAMP increase), actives largely listed as activators; active = well fitted activation curve with a large enough effect; inconclusive = small, poorly fitted or top-dose-only effect, or another doubt; inactive = no such curve, though single readings can be large or run the other way; cell line not stated here;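 further: phosphodiesterase inhibitor Ro 20-1724 added with compounds to block cAMP breakdown; potency means the concentration at half of the fitted maximal effect; nearly all actives have a fitted effect of over 60% in size; about a fifth of the inactives were tested at one dose only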
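Cells stably selected in G418 were plated at 2000/well, grown 16-24 hr, then given compounds in DMSO with the PDE inhibitor […] (300 uM solution added) for 30 min at 37C; cAMP was read by HTRF.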
Sfp inh – qHTS Assay for Inhibitors of Bacillus subtilis Sfp phosphopantetheinyl transferase (PPTase); 4'-phosphopantetheinyl transferase ffp (Bacillus subtilis), Q9F4F7; Biochemical Sfp PPTase activity, qHTS; Potency, µM, inactives show max response, negative = inhibition, hits mostly inhibitors; 310,000 tested, 3.5% active; active means well fitted inhibition curve with a large enough effect; inconclusive means small, poorly fitted or top-dose-only effect, or another doubt; inactive means no such curve, though single readings can be large or run the other way;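 further: the enzyme is Sfp with the accession as filed and its product quenches rhodamine fluorescence; potency means the concentration at half of the fitted maximal effect; 0% = enzyme reaction without inhibitor and -100% = no enzyme wells; top concentration of the series not given in the record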
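With Hepes-Na pH 7.6 buffer containing 10 mM MgCl2, Sfp (15 nM) modified BHQ-2-YbbR (12.5 uM) using rhodamine-CoA (5 uM). Two reads 30 minutes apart at 525/598 nm yielded each well's rate.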
Menin MLL FP FL – qHTS Assay for Inhibitors Targeting the Menin-MLL Interaction in MLL Related Leukemias: Competition With Fluorescein Labeled MLL-derived Peptide; Fluorescence polarization, fluorescein-MLL peptide displacement from menin; FP activity change, % at 61.4 µM; 290,000 tested, under 10 active; inconclusive = falling polarisation curve, or a change in total fluorescence; inactive = total fluorescence flat and polarisation flat or rising; no compound was filed as active; the % refers to the polarisation; negative = inhibition;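 further: % of control where 0% means no effect; inhibitors lower the polarisation; unlabelled MLL peptide was the positive control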
ClpP mod – qHTS Assay for Activators of ClpP | 340,000 tested, 1.9% active | ATP-dependent Clp protease proteolytic subunit (Bacillus subtilis (strain 168)), P80244 | AID 651965, 2013 | Potency, µM (series often up to 57.5 µM), inactives show top-dose activity change, negative = active | purified B. subtilis ClpP, FRET peptide cleavage, 20 min; active = well fitted falling curve with a large enough effect; inconclusive = small, poorly fitted or top-dose-only effect; inactive = no such curve, though single readings can be large or run the other way; further: potency means the concentration at half of the fitted maximal effect; the source files actives as falling curves though it sought activators and does not explain the sign; nearly all actives have a fitted effect of over 65% in size; many hits overshoot -100%
Target sequence (P80244 whole entry, looked up): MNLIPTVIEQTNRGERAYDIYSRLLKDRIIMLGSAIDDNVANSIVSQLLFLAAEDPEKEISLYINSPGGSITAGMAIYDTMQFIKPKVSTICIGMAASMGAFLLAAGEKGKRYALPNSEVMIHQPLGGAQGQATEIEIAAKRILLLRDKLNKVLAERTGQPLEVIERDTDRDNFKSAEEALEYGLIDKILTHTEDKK
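Purified B. subtilis ClpP, 10 microg/mL final in Tris/HCl pH8 with KCl, BSA, glycerol and Tween-20, cleaved an Abz/nitrotyrosine-quenched decapeptide. Fluorescence (ex 320, em 430) was read at 0 and 20 min at room temperature. Delta was normalized to 5.8 microM ADEP and DMSO/no-enzyme controls.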
TRPV1 potentiator – HTS Assay for Compounds that Act as Potentiators of the Vanilloid Receptor 1; TRPV1-expressing cells, Fluo-8 calcium influx, capsaicin EC20 potentiation; host cell line not named in the record; control for the full effect not named in the record; 320,000 tested, 0.02% active; potentiation, % at 8.33 µM; active means potentiation above 80%; inconclusive means 30% to 80%; inactive means below 30%; further: 0% is about no effect
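TRPV1-expressing cells were cultured overnight at 35.5C and loaded with Fluo-8 calcium dye for 40 to 90 min at room temperature. After a 10 s baseline, compound was added and calcium influx was read kinetically for 3 min (ex 480/em 520 nm).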
D2 PAM – Beta-Arrestin HTS for Positive Allosteric Modulators of the Human D2 Dopamine Receptor: Potentiators | DiscoveRx D2 beta-arrestin cells, luminescence, 90 min; 100% = 57 uM dopamine signal | potentiation, % (concentration not given with the values) | 360,000 tested, 0.23% active; active = potentiation of 50% or more; inconclusive = 30% to 50%; inactive = 30% or less;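 further: compound concentration not given in the record; tested on top of an EC20 dose of dopamine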
Target sequence (P14416 whole entry, looked up): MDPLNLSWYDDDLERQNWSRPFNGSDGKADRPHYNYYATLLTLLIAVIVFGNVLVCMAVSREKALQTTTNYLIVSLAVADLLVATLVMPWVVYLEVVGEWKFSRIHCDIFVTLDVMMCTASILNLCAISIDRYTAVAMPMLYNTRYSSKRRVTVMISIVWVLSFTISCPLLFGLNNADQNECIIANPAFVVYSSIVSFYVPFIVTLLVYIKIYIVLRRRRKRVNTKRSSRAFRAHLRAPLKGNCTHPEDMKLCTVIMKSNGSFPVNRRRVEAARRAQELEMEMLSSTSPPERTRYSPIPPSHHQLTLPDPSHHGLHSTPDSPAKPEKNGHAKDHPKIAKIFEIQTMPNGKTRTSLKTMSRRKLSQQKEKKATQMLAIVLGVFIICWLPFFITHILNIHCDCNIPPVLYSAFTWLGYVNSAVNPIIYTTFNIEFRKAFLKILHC
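PathHunter D2 cells, attached overnight at 37 deg C, received compound in DMSO plus dopamine at EC20 (50 nM final) for 90 min at 37 deg C. Beta-arrestin recruitment was read as luminescence after 1 h with detection reagent at ambient temperature.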
Active calls of the source: *; [ ] = dose if it differs, or a comment. Random draw from the library, and some 5.1% of all compounds hit somewhere here.

What do the screens show for `O=C(Nc1ccc(Cl)cc1)C1CCCN(c2ncnc3c2nc2n3CCCCC2)C1` (stereo not given)?
gsp antag: -29%; gsp agonist: 17%; Sfp inh: 0%; Menin MLL FP FL: 0.0; TRPV1 potentiator: -2; D2 PAM: 0

How did COC(=O)c1ccc(NC(=O)Nc2ccc3c(c2)nc(C)n3C)cc1 do in these assays?
gsp antag: 1%; gsp agonist: -38%[inhibitor]; Sfp inh: -5%; Menin MLL FP FL: 2.4; ClpP mod: 0.4%; TRPV1 potentiator: -25; D2 PAM: -7

What do the screens show for `CC(Sc1nc(-c2ccccc2)cc(=O)[nH]1)C(=O)O` (stereo not given)?
gsp antag: 6%; gsp agonist: -32%; Sfp inh: 20%; Menin MLL FP FL: 1.5; ClpP mod: -3.2%; TRPV1 potentiator: 0; D2 PAM: -10

Results for CC(C)(C)OC(=O)NCCCCCNC(=O)c1[nH]cnc1C(=O)N[C@@H](Cc1ccccc1)C(=O)OCc1ccccc1 ?
gsp antag: -19%; gsp agonist: 0%; Sfp inh: 17%; Menin MLL FP FL: 2.5; ClpP mod: -0.1%; TRPV1 potentiator: 21; D2 PAM: -23

How did CCOC(=O)Cc1csc(NC(=O)/C=C/c2cccc(Br)c2)n1 do in these assays?
gsp antag: -23%; gsp agonist: -6%; Sfp inh: 2%; Menin MLL FP FL: 0.8; ClpP mod: 5.4%; TRPV1 potentiator: -10; D2 PAM: 2

How did CCCN1CCN(C(=O)CCCn2c(C)c3cnn(-c4ccccc4)c(=O)c3c2C)CC1 do in these assays?
gsp antag: -10%; gsp agonist: inconclusive; Sfp inh: -5%; Menin MLL FP FL: 2.4; ClpP mod: -1.9%; TRPV1 potentiator: 5; D2 PAM: -3

Results for CCCN(CCC)S(=O)(=O)c1ccc(NC(=O)C2CCCO2)cc1 (stereo not given) ?
gsp antag: 7%; gsp agonist: 7%; Sfp inh: 11%; Menin MLL FP FL: 0.6; ClpP mod: 1.3%; TRPV1 potentiator: 20; D2 PAM: -27

What do the screens show for `CC(C)n1nc(C(=O)NCc2ccc3c(c2)OCO3)c2ccccc2c1=O`?
gsp antag: -12%; gsp agonist: 11%; Sfp inh: 1%; Menin MLL FP FL: 0.0; ClpP mod: -8.4%; TRPV1 potentiator: -7; D2 PAM: -3

Results for Cc1ccccc1NC(=O)c1cc(S(=O)(=O)N2CCCCC2)ccc1N1CCOCC1 ?
gsp agonist: -184%[inhibitor]; ClpP mod: 0.2%; D2 PAM: 6

How did CCC1(CC)NC(=O)N(Cc2nc3ccccc3s2)C1=O do in these assays?
gsp antag: -5%; gsp agonist: -4%[15.4 µM]; Sfp inh: 12%; Menin MLL FP FL: 0.0; TRPV1 potentiator: 6; D2 PAM: -3

Results for O=C(CS(=O)(=O)c1ccccc1)N(CCCN1CCOCC1)c1nc2c(F)cccc2s1 ?
gsp antag: -14%; gsp agonist: 6%; ClpP mod: inconclusive; TRPV1 potentiator: -3; D2 PAM: -9

Results for CC(=O)NCCc1cc2ccc(C)cc2[nH]c1=O ?
gsp antag: -2%; gsp agonist: -6%; Sfp inh: 28%; Menin MLL FP FL: 2.1; ClpP mod: inconclusive; TRPV1 potentiator: 3; D2 PAM: 19

Results for O=C(NCCn1cccn1)C1CCC(=O)N(CCc2ccc(Cl)cc2)C1 (stereo not given) ?
gsp antag: 2%; gsp agonist: 3%; Sfp inh: 13%; ClpP mod: 2.9%; TRPV1 potentiator: -4; D2 PAM: -8

How did O=C(CN1C(=O)NC2(CCCC2)C1=O)OCCOc1cccc(Br)c1 do in these assays?
gsp antag: 11%; gsp agonist: 22%[15.4 µM]; TRPV1 potentiator: -6; D2 PAM: -23

What do the screens show for `O=C(Cc1cccs1)Nc1ccc(F)c(F)c1`?
gsp antag: 11%; gsp agonist: 2%[15.4 µM]; Sfp inh: 19%; Menin MLL FP FL: 2.9; ClpP mod: 4.8%; TRPV1 potentiator: -15; D2 PAM: -2

Results for CCn1nc(NC(=O)CC(C)C)c2cc3ccc(C)cc3nc21 ?
gsp antag: -2%; gsp agonist: 2%; Sfp inh: -13%; Menin MLL FP FL: -19; ClpP mod: -14%; TRPV1 potentiator: inconclusive; D2 PAM: -13

What do the screens show for `CCC(=O)NNC(=O)CSc1nnc(-c2ccccc2)c(-c2ccccc2)n1`?
gsp antag: 3%; gsp agonist: 1%[15.4 µM]; Sfp inh: 21%; Menin MLL FP FL: 5.2; ClpP mod: 0.7%; TRPV1 potentiator: -12; D2 PAM: -6

Results for CCC(NC(=O)C1CCC1)c1ccccc1 (stereo not given) ?
gsp antag: 20%; gsp agonist: 1%; Sfp inh: 22%; Menin MLL FP FL: 2.7; ClpP mod: -1.1%; TRPV1 potentiator: 11; D2 PAM: 12

Results for CCOc1ccccc1C(=O)NCC(=O)NCCCSc1ccccc1 ?
gsp antag: -6%; gsp agonist: -7%; Sfp inh: 5%; ClpP mod: -0.9%; TRPV1 potentiator: 26; D2 PAM: -1

Results for COc1cc(OC)c(C(=O)NC2CCCc3ccccc32)cc1OC (stereo not given) ?
gsp antag: -6%; gsp agonist: 22%; Sfp inh: -6%; Menin MLL FP FL: 0.2; TRPV1 potentiator: 0; D2 PAM: 0

Among those listed so far, these have bromine:
How did CCOC(=O)Cc1csc(NC(=O)/C=C/c2cccc(Br)c2)n1 do in these assays?
gsp antag: -23%; gsp agonist: -6%; Sfp inh: 2%; Menin MLL FP FL: 0.8; ClpP mod: 5.4%; TRPV1 potentiator: -10; D2 PAM: 2

How did O=C(CN1C(=O)NC2(CCCC2)C1=O)OCCOc1cccc(Br)c1 do in these assays?
gsp antag: 11%; gsp agonist: 22%[15.4 µM]; TRPV1 potentiator: -6; D2 PAM: -23

(next part)
What do the screens show for `COc1ccccc1CNCC(=O)Nc1ccc(N(C)C)cc1`?
gsp antag: -17%; gsp agonist: 22%; Sfp inh: -19%; Menin MLL FP FL: -12; ClpP mod: 0.0%; TRPV1 potentiator: 10; D2 PAM: -4

How did COC(C/C=C/C(=O)[C@@H](C)OCc1ccccc1)OC do in these assays?
gsp antag: 5%; gsp agonist: 2%; ClpP mod: 2.0%; D2 PAM: -7

What do the screens show for `Cc1ccc(NS(=O)(=O)c2ccc(CCC(=O)NC3CC3)cc2)cc1`?
gsp antag: 10%; gsp agonist: 21%; Sfp inh: 5%; Menin MLL FP FL: 3.3; ClpP mod: -1.0%; TRPV1 potentiator: 6; D2 PAM: -2

What do the screens show for `O=C(NC1CCCCC1)c1ccc(CS(=O)(=O)Cc2ccccc2F)o1`?
gsp antag: 3%; gsp agonist: -14%; Sfp inh: -6%; Menin MLL FP FL: 1.0; ClpP mod: -0.4%; TRPV1 potentiator: 13; D2 PAM: -4

What do the screens show for `COc1ccc(Nc2nccc(-c3ccc(C#N)cc3)n2)cc1`?
gsp antag: -2%; gsp agonist: inconclusive; Sfp inh: 7%; Menin MLL FP FL: -16; TRPV1 potentiator: -17; D2 PAM: 10

Results for CC(=O)/C(CN1CCCCC1)=N\O ?
gsp antag: 1%; gsp agonist: -9%; Sfp inh: -10%; Menin MLL FP FL: -0.3; ClpP mod: -0.1%; TRPV1 potentiator: -13; D2 PAM: -18

How did Cc1ccc(S(=O)(=O)N2C[C@@H]3CCCC[C@@H]3[C@@H](C)[C@H]2CC(=O)c2ccccc2)cc1 do in these assays?
gsp antag: 3%; ClpP mod: -1.0%; D2 PAM: -1

How did Cn1c(-c2cc(Br)ccc2O)n[nH]c1=S do in these assays?
gsp antag: -10%; gsp agonist: -27%; Sfp inh: 11%; Menin MLL FP FL: 1.6; ClpP mod: -4.4%; TRPV1 potentiator: 4; D2 PAM: -19

What do the screens show for `Cn1cc(C(=O)N2CCc3ccccc3C2)c(=O)c2cc(S(=O)(=O)N3CCOCC3)ccc21`?
gsp antag: 6%; gsp agonist: inconclusive; Sfp inh: 7%; Menin MLL FP FL: -5.7; TRPV1 potentiator: -16; D2 PAM: -2

How did Cc1ccnc(S(=O)(=O)Cc2ccc([N+](=O)[O-])cc2)n1 do in these assays?
gsp antag: 5%; gsp agonist: -1%; Sfp inh: -4%; Menin MLL FP FL: -5.8; ClpP mod: 2.2%; TRPV1 potentiator: 4; D2 PAM: -10

How did NC(c1ccncc1)c1ccc(Cl)cc1 (stereo not given) do in these assays?
gsp agonist: -29%; ClpP mod: 0.3%; D2 PAM: -8

Results for CC(C)CN(C(=O)COC(=O)CCSc1ccc(Cl)cc1)c1c(N)n(Cc2ccccc2)c(=O)[nH]c1=O ?
gsp agonist: -96%[inhibitor]; ClpP mod: 1.4%; D2 PAM: -11

Results for COCCN(C(=O)COC(=O)CCC1CCCCC1)c1c(N)n(Cc2ccccc2)c(=O)[nH]c1=O ?
gsp agonist: -105%[inhibitor]; ClpP mod: 0.9%; D2 PAM: -12

How did O=C(c1ccccc1Oc1ccccc1)N1CCN(c2ccccc2F)CC1 do in these assays?
gsp antag: -14%; gsp agonist: 7%; Sfp inh: 1%; Menin MLL FP FL: -4.8; ClpP mod: 0.9%; TRPV1 potentiator: -18; D2 PAM: -19

Sorted by number of heavy atoms (ascending): part of the list above
What do the screens show for `O=C(NC1CCCCC1)c1ccc(CS(=O)(=O)Cc2ccccc2F)o1`?
gsp antag: 3%; gsp agonist: -14%; Sfp inh: -6%; Menin MLL FP FL: 1.0; ClpP mod: -0.4%; TRPV1 potentiator: 13; D2 PAM: -4

What do the screens show for `Cn1cc(C(=O)N2CCc3ccccc3C2)c(=O)c2cc(S(=O)(=O)N3CCOCC3)ccc21`?
gsp antag: 6%; gsp agonist: inconclusive; Sfp inh: 7%; Menin MLL FP FL: -5.7; TRPV1 potentiator: -16; D2 PAM: -2

Results for COCCN(C(=O)COC(=O)CCC1CCCCC1)c1c(N)n(Cc2ccccc2)c(=O)[nH]c1=O ?
gsp agonist: -105%[inhibitor]; ClpP mod: 0.9%; D2 PAM: -12
